# Assay outcomes: PubChem BioAssay, National Center for Advancing Translational Sciences (NCATS)
# gsp antag: antagonizes gsp, the McCune-Albright syndrome mutation. Potency, µM (top dose mostly 76.9 µM), for inactives: top-dose activity change, negative = inhibition, actives largely listed as inhibitors. gsp-mutant cells, cAMP HTRF, 30 min; control for the full effect not named in the record. actives 0.4% (n = 340,000). AID 624288; active = falling curve of any shape with a large fitted effect; inconclusive = falling curve, mostly with a smaller effect; inactive = flat or rising curve; cell line not stated here;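 also: intracellular cAMP measured with PDE inhibitor Ro 20-1724 present during compound exposure; potency is read from the fitted curve at half-maximal effect; % is scaled to controls: 0 for no effect and ±100 for the full control effect; nearly all actives have a fitted effect of over 65% in size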
#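 Cells, 2000/well, grown 16–24 h in DMEM 10% FBS with 0.5 mg/ml G418, then compounds plus […] (300 uM addition stock), 30 min at 37C. cAMP read by HTRF (cAMP-d2 and anti-cAMP antibody-K in lysis buffer) after 30 min RT.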
# D2 potentiator: potentiates the human D2 dopamine receptor allosterically; P14416; DiscoveRx D2 beta-arrestin cells, luminescence, 90 min; 100% = 57 uM dopamine signal; potentiation, % (test concentration not listed); actives 0.23% (n = 360,000); active = potentiation of 50% or more; inconclusive = 30% to 50%; inactive = 30% or less;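 also: compound concentration not given in the record; tested on top of an EC20 dose of dopamine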
# Target sequence (P14416 whole entry, looked up): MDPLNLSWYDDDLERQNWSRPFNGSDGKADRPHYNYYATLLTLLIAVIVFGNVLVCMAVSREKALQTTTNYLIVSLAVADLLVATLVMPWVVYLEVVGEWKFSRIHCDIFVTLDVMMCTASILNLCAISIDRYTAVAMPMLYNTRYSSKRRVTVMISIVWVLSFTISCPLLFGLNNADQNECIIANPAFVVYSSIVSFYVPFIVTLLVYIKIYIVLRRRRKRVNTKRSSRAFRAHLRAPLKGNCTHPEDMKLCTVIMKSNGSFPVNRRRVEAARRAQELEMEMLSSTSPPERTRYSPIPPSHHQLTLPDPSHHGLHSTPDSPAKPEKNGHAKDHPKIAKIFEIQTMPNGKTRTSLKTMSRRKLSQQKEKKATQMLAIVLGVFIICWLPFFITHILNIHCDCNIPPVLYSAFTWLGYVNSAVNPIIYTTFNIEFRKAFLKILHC
#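 D2 cells co-treated with compound plus 50 nM dopamine (EC20) for 90 min at 37 deg C to detect potentiation. Beta-arrestin recruitment was read as enzyme-fragment luminescence after 1 h at ambient temperature. Full response was set by 57 uM dopamine.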
# gsp ag: agonists of gsp mutant (McCune-Albright syndrome). gsp mutant cells, cAMP HTRF, 30 min; control for the full effect not named in the record. Potency, µM (titrated, usually from 76.9 µM), for inactives: at the top dose activation (cAMP increase), most hits filed as activators. actives 0.13% (n = 340,000); active = well fitted activation curve with a large enough effect; inconclusive = small, poorly fitted or top-dose-only effect, or another doubt; inactive = no such curve, though single readings can be large or run the other way; cell line not stated here;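 also: phosphodiesterase inhibitor Ro 20-1724 added with compounds to block cAMP breakdown; potency is read from the fitted curve at half-maximal effect; nearly all actives have a fitted effect of over 60% in size; about a fifth of the inactives were tested at one dose only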
#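 Cells in DMEM/10% FBS with G418 were pretreated with compounds in DMSO plus […] (300 uM stock) for 30 min at 37C. cAMP was measured by HTRF (cAMP-d2 plus anti-cAMP antibody-K) after 30 min at room temperature.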
# D2 ag: human D2 receptor agonism in beta-arrestin assay. activation, % (concentration not given with the values). DiscoveRx PathHunter D2 beta-arrestin, luminescence, 90 min; 100% = 57 uM dopamine signal. actives 0.084% (n = 360,000); in the data active = activation above about 40%; inconclusive = about 15% to 40%; inactive = below about 15%; also: compound concentration not given in the record; the text of the record calls up to 30% inactive
#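 DiscoveRx PathHunter D2 beta-arrestin cells (2,100/well) attached overnight, then compound-stimulated 90 min at 37 C in HBSS/10 mM HEPES/0.1% Tween-20 buffer; beta-galactosidase complementation read by luminescence after 1 h at ambient temperature. Dopamine 57 uM final (EC100) as control.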
# Six1-Eya2 inh: blocks human Six1 binding to Eya2; actives 0.56% (n = 360,000); Q15475+O00167; AID 651725; activity change, % (no concentration beside the values); AlphaScreen GST-Six1/His-Eya2 binding, biochemical; stronger effect = lower value; control for the full effect not named in the record; in the data active = activity change below about -65%; inconclusive = about -30% to -65%; inactive = above about -30%; also: % is scaled to controls: 0 for no effect and ±100 for the full control effect; compound concentration not given in the record
#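 GST-Six1 + His-Eya2 (5X stock: 250/500 nM); Tris pH 8.0, 300 mM NaCl, 0.05% BSA, 0.02% Tween 20; GSH donor/Ni acceptor beads; 1 h 37 °C dark; AlphaScreen readout.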
# CtBP-E1A blk: CtBP/E1A binding inhibition; AlphaScreen GST-E1A/His-CtBP binding, 1536-well; stronger effect = lower value; control for the full effect not named in the record; activity change, % (concentration not given with the values); actives 0.49% (n = 340,000); in the data active means activity change below about -65%; inconclusive means about -30% to -65%; inactive means above about -30%; also: % is scaled to controls: 0 for no effect and ±100 for the full control effect
#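 AlphaScreen with 125 nM GST-E1A and 125 nM His-CtBP (5X stocks) in Tris pH 8.0, 300 mM NaCl, BSA, Tween 20, TCEP. Compounds preincubated 2 h at 37 deg C, then glutathione donor/nickel acceptor beads added for 1 h at 37 deg C in dark.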
# * hit, by the source's call; ? = inconclusive; / = no result given; [ ] = dose if it differs, or a comment. An unsorted share of the library; overall some 1.4% were active at least once.
SMILES,gsp antag,D2 potentiator,gsp ag,D2 ag,Six1-Eya2 inh,CtBP-E1A blk
COc1cc(NC(=O)C2CC(c3ccccc3O)=NO2)c(OC)cc1Cl (configuration not stated),1%,-1,-25%,8.2,4,-6
CCCCn1c(N)c(N(CC(C)C)C(=O)CN2C(=O)C3CCCCC3C2=O)c(=O)[nH]c1=O (configuration not stated),3%,-7,52%[15.4 µM],-2.8,-1,2
CCOC(=O)C1(CC2CC2)CCN(C(=O)c2cccnc2C)CC1,8%,2,3%,0.4,7,15
CN(C)C(CNC(=O)c1ccc(S(=O)(=O)Nc2ccccc2F)cc1)c1ccccc1 (configuration not stated),2%,-34,?,-3.8,2,0
CC(C)Nc1ccc(Nc2ccnc3cc4ccccc4cc23)cc1,6%,-8,9%[15.4 µM],0.3,-70*,-81*
CC(C)Cn1cnc2c(c(-c3ccccc3)c(-c3ccccc3)n2Cc2ccco2)c1=N,14%,-27,14%,-4.1,-17,-15
COc1ccccc1CN1CC(C(=O)NCc2cccc(Cl)c2)CCC1=O (configuration not stated),9%,-6,?,-3.4,3,2
CC(=O)c1ccc(NC(=O)CN2CCOCC2)cc1,-3%,9,3%,3.4,-2,/
CC1Sc2ccc(S(=O)(=O)CCC(=O)NCc3ccc(Cl)cc3)cc2NC1=O (configuration not stated),-15%,-5,-1%,5.7,0,-11
COc1ccc(C2c3ccc(O)cc3Oc3ncn4nc(-c5ccccn5)nc4c32)cc1 (configuration not stated),-13%,-3,2%,3.1,3,-16
COc1cc(C(=O)OCC(=O)NCC2CCCCC2)ccc1OCC(C)C,8%,-6,1%[15.4 µM],-3.0,-4,8
O=C(CCNS(=O)(=O)c1ccccc1C(F)(F)F)Nc1ccncc1,11%,0,?,10,0,2
Cc1ccc(C(=O)c2cc(C)sc2NC(=O)CN2CCN(C(=O)c3ccco3)CC2)cc1,-22%,-4,?,-1.0,-25,-16
Cc1c(Br)c(C(F)(F)F)nn1CC(=O)NCCN1CCOCC1,8%,-1,-1%,-2.4,10,14
C[C@H](CO)N1C[C@H](C)[C@H](CN(C)C(=O)Nc2ccc(C(F)(F)F)cc2)Oc2ncc(Br)cc2C1=O,/,-5,?,-11,32,-5
O=C(O)C1CCCN(S(=O)(=O)c2ccc(Cl)s2)C1 (configuration not stated),-4%,-9,-15%,-2.9,0,0
Cc1ccc(S(=O)(=O)N(C)C)cc1NC(=O)COC(=O)C1CCCC1,13%,-9,4%[15.4 µM],-4.3,-7,0
COc1ccccc1CCC(=O)OCC(=O)Nc1ccc(S(N)(=O)=O)cc1,18%,-5,0%[15.4 µM],-1.5,-15,11
NC(Cc1ccccc1)c1csc(Nc2ccc(C(=O)c3ccccc3)cc2)n1 (configuration not stated),/,-6,/,?,-6,4
CCCCn1c(SCC(=O)N2CCCC2)nnc1-c1ccccc1,9%,-4,-3%,-4.1,9,2
CCn1c(C(=O)NCCCc2ccccc2)cc2sccc21,-17%,-5,-8%,-1.4,-5,6
CC(C)CCOc1ccc(NC(=O)C2OC3OC(C)(C)OC3C3OC(C)(C)OC23)cc1 (configuration not stated),8%,-4,-12%,-2.7,0,2
N#Cc1c2c(c(NCc3cccnc3)n3c1nc1ccccc13)CCC2,-3%,-12,6%,-0.2,-7,-13
CC(=O)Nc1ccc(NC(=O)c2cc(-c3ccc(C)c(C)c3O)n[nH]2)cc1,-1%,-3,-6%,-5.5,-3,-1
CC(C)(C)n1ncc2c(=O)n(CC(=O)N3CCN(c4ccccc4)CC3)cnc21,0%,-5,?,-1.6,4,1
O=C(NCCS(=O)(=O)N1CCN(c2ccccc2)CC1)C1CC1,-8%,17,-39%,-4.0,0,11
CCC(C)NC(=O)c1cc(CC(C)C)on1 (configuration not stated),8%,-4,-80%[inhibitor],-4.0,3,1
O=C(Nc1ccc2c(c1)OCO2)Nc1ccc(Br)cn1,14%,-11,-48%[inhibitor],2.9,-7,0
C/C(N)=C(/C#N)C(=O)COC(=O)CCSc1ccccc1Cl,1%,1,6%,-0.5,0,4
Cc1ccc(OCCCCN2CCCCC2)c(C)c1,2%,-5,-3%,-1.6,0,-8
C/C(=N\NC(=O)C1CC1)c1ccc(OC(F)F)cc1OC(F)F,-14%,-2,31%[15.4 µM],1.5,-4,-12
Cc1ccc(NNS(=O)(=O)c2ccc(C)cc2)cc1,-4%,-1,6%,0.6,6,0
COc1ccc(C2C(C(=O)Nc3ccc(OC)c(OC)c3)c3ccccc3C(=O)N2C)cc1 (configuration not stated),-5%,0,-2%[15.4 µM],-2.4,-17,3
O=C(c1ccccc1)N1CCN(Cc2ccccc2C(F)(F)F)CC1,12%,-6,0%[15.4 µM],-14,3,0
CC(=O)c1cccc(NC(=O)c2ccccc2N(Cc2ccccc2)S(C)(=O)=O)c1,0%,0,-2%,-6.6,0,0
Cc1ccccc1OCCCCN1CCCCC1,-7%,-20,-18%,-5.5,2,3
CC(C1CCN(Cc2cn(C)nc2-c2cccc(Cl)c2)CC1)N1CCOCC1 (configuration not stated),15%,-7,-9%,-5.2,-3,/
Cc1cc(C)c(NC(=O)COC(=O)c2nc3nccc(C)n3n2)c(Cl)c1,10%,4,-8%,-1.7,2,5
COc1cccc(SCc2noc(C(=O)NC(C)C)c2C(=O)O)c1,-1%,28,/,1.0,-1,5
OCc1ccccc1-c1cccc2nccn12,/,3,/,6.0,-29,-26

# Profiles, quoted from the list:
# CC(=O)c1cccc(NC(=O)c2ccccc2N(Cc2ccccc2)S(C)(=O)=O)c1 is entered as gsp antag = 0%; D2 potentiator = 0; gsp ag = -2%; D2 ag = -6.6; Six1-Eya2 inh = 0; CtBP-E1A blk = 0
# O=C(Nc1ccc2c(c1)OCO2)Nc1ccc(Br)cn1 is entered as gsp antag = 14%; D2 potentiator = -11; gsp ag = -48%[inhibitor]; D2 ag = 2.9; Six1-Eya2 inh = -7; CtBP-E1A blk = 0

# Later entries.
SMILES,gsp antag,D2 potentiator,gsp ag,D2 ag,Six1-Eya2 inh,CtBP-E1A blk
NS(=O)(=O)c1ccc(NC(=S)NC(=O)C2CCCC2)cc1,14%,5,-25%,-3.4,2,3
C=CCN(C(=O)CNC(=O)c1ccco1)C(C(=O)NC1CCCCC1)c1ccccc1 (configuration not stated),2%,-14,5%,-4.1,0,3
Cc1ccc(NC(=O)c2cccs2)cc1S(=O)(=O)N(C)C,-5%,-30,-6%,-1.7,-13,0
O=C1C(c2ccccc2)C(c2ccccc2)NC(c2ccccc2)C1c1ccccc1 (configuration not stated),-12%,-7,-23%,-3.6,-1,0
COc1ccc(C(C)(O)c2nc(-c3ccc(OC)c(OC)c3)cs2)cc1 (configuration not stated),/,-6,/,13,7,-2
COc1ccccc1NC(=O)Nc1ccccc1Br,0%,-6,?,-7.5,-2,9
CCCNC(=O)C1(C)CCCN(C(=O)c2ccc3snnc3c2)C1 (configuration not stated),/,-4,/,-5.6,5,6
CC(C)(O)/C=C1/Oc2ccccc2C1N1CCCCC1 (configuration not stated),0%,2,14%,-2.6,0,0
O=C(NNC(=O)c1cc(S(=O)(=O)N2CCOCC2)ccc1Cl)c1ccc(F)cc1,/,2,33%,-3.3,-1,7
Nc1nc(CSc2ccc(Cl)cc2)nc(N2CCCCC2)n1,-2%,18,-2%[15.4 µM],-10,-5,10
CC(C)C(=O)NC(NC(=O)C(C)C)c1ccc([N+](=O)[O-])cc1,-6%,6,-74%[inhibitor],0.6,9,-12
COc1ccc(-c2nn(-c3ccccc3)cc2/C=N/Nc2ccc(Cl)c(C(=O)O)c2)cc1OC,4%,-10,3%,-0.6,-5,-6
O=C1c2cccc3cc([N+](=O)[O-])cc(c23)C(=O)N1c1ccccc1O,-22%,16,2%[15.4 µM],?,8,/
c1ccc2c(c1)sc1nnnn12,3%,2,2%,-2.2,-2,3
O=C(NCCCCc1ccccc1)c1ccccc1,8%,-3,-9%[15.4 µM],-0.2,2,15
NS(=O)(=O)c1ccc(Cc2ncc(C(F)(F)F)cc2Cl)s1,0%,-7,-5%[15.4 µM],0.1,1,-11
Cc1ccccc1NC(=S)N(CCCN1CCC(C)CC1)Cc1ccco1,-11%,-18,9%[15.4 µM],-5.0,-16,-2
COc1ccc(CN2C(=O)C(CC(C)C)Nc3ncnc(N4CCN(c5ccccn5)CC4)c32)cc1 (configuration not stated),-9%,-22,-16%,-3.8,3,12
OCCC1CN(Cc2cccnc2)CCN1CCc1ccccc1 (configuration not stated),8%,-15,8%,-1.5,3,-14
O=C(NNc1cc(N2CCOCC2)nc(N2CCOCC2)n1)c1ccc([N+](=O)[O-])cc1,-8%,2,-61%[inhibitor],3.2,2,?
O=C1CCCN1c1ccc([N+](=O)[O-])cc1,/,-7,?,1.1,3,-2
Cc1cccc(N(C(=O)c2snc(C(N)=O)c2N)C(C)C(=O)NCC2CCCO2)c1 (configuration not stated),-4%,10,5%[15.4 µM],-5.4,-1,-16
CCOc1ccc(-n2ccnc(SCC(=O)NCc3cccc(OC)c3)c2=O)cc1,3%,-3,10µM*,-1.3,-5,11
O=C(CN1CCN(Cc2ccccc2)CC1)N/N=C/c1cccs1,4%,-30,0%,-1.4,-3,/
CC(=O)c1c(C)[nH]c(C(=O)OCc2ccc(F)cc2Cl)c1C,-3%,-8,4%[15.4 µM],4.1,4,3
COc1cc(-c2nnc(Cn3cc(C(F)(F)F)ccc3=O)o2)cc(OC)c1OC,-10%,0,-35%[inhibitor],1.8,-13,-24
O=C(CSCc1nc2ccccc2[nH]1)Nc1ccc2ccccc2c1,-6%,-17,-2%,-2.6,-2,1
COc1ccc(N2CCN(C(=O)COC(=O)c3cccc(S(=O)(=O)Nc4cccc(C)c4)c3)CC2)cc1,-8%,9,-2%[15.4 µM],5.5,-28,?
CCOc1cc(NC(=S)Nc2cccc(OC)c2)c(OCC)cc1NC(=O)C1CC1,?,-2,11%,3.9,-3,-4
O=C(NCC1CCCO1)c1cc(-c2ccncc2)nc2ccccc12 (configuration not stated),7%,12,-18%,-3.1,-2,9
Cc1cccn2c(=O)c3cc(C(=O)NCC(C)C)sc3nc12,16%,-3,0%[15.4 µM],-0.9,0,1
Cc1cc(C)c(S(=O)(=O)Nc2ccc(C(=O)O)cc2)cc1S(=O)(=O)Nc1ccc(C(=O)O)cc1,-9%,-5,0%[15.4 µM],-4.2,0,1
Cc1ccc2c(c1)C(c1ccccc1)N(C(=O)CC(C)C)CC(=O)N2 (configuration not stated),4%,2,-26%,-4.4,4,-16
CCOC(=O)C(C)(C)n1nnc(-c2ccc([N+](=O)[O-])cc2)n1,-2%,-5,-14%[15.4 µM],-0.6,-9,1
Cc1ccc2nc(SCC(=O)N3CCC(C)CC3)nc(=O)n2c1,16%,-14,?,0.0,-2,16
O=C(OCC(=O)N1CCN(C(=O)c2ccco2)CC1)c1ccccc1Cc1ccccc1,-13%,0,-7%,-1.4,-1,4
